Ecoli growth = inhibitors of Escherichia coli growth; OD600, 23 h; stronger effect = lower value; OD600 absorbance (no concentration beside the values); actives 0.21% (n = 330,000); AID 1053175;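 active means OD600 absorbance below the run mean of sample wells minus 3.6 SD, in any replicate, cut at about 0.56 in these data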;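 further: stock transfer was 300 nL into about 60 µL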
ALR H2O2 inh = inhibitors of human sulfhydryl oxidase ALR | P55789 | AID 485317 | purified ALR, DTT oxidation, H2O2 HRP-luminol luminescence | actives 3.8% (n = 290,000) | inhibition, % (concentration not given with the values);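 active means mean and each replicate at 75% or more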;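 further: stock transfer was 7.5 nL into about 7.5 µL; 0% = neutral wells and 100% = wells with inactivated enzyme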
UCH37 DUB inh = blocks the human deubiquitinase UCH37. Q9Y5K5. purified proteasome/UCH37, Ub-AMC cleavage fluorescence. inhibition, % (test concentration not listed). actives 0.33% (n = 330,000);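 active means mean of two replicates above 20%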;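 further: 0% = compound-free wells with enzyme and 100% = wells lacking proteasome; stock transfer was 100 nL into about 20 µL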
Target sequence (Q9Y5K5 whole entry, looked up): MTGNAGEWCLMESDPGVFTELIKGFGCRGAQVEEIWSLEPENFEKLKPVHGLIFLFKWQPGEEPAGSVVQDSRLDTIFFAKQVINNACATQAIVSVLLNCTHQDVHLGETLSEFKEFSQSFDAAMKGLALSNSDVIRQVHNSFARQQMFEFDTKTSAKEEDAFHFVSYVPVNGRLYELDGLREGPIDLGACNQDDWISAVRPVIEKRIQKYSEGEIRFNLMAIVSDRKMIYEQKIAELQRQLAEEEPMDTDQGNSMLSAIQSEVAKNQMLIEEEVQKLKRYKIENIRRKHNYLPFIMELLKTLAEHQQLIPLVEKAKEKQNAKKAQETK
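Material: human UCH37 enzyme supplied as purified proteasome complex. Measure: % inhibition of Ub-AMC cleavage fluorescence. Medium: pH 7.4 Tris-HCl (50 mM) with ovalbumin, ATP-MgCl2, DTT. Times: 30 min preincubation with enzyme, 25 min cleavage at room temperature. Detection: AMC fluorescence intensity at 355/460 nm.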
LANA-H2A inh = blocks KSHV LANA binding to histone H2A/H2B | Q9QR71 | actives 0.6% (n = 320,000) | inhibition, % (concentration not given with the values) | cell-free LANA-H2A/H2B peptide, fluorescence polarization; in the data active means inhibition mostly above about 10%, no sharp cut-off; inactive means mostly below about 6.7%;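 further: stock transfer was 7.5 nL into about 10 µL; 0% = median of vehicle wells and 100% = median of positive control wells; one replicate is shown; the record names a cut of 25% in any replicate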
B2AR ag = agonists of human beta-2 adrenergic receptor inducing internalization; response, % (test concentration not listed); P07550; Am2.2-beta2AR cells, FAP receptor internalization, flow cytometry; reference of the scale not given here; actives 0.43% (n = 340,000);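 active means response above a set limit, near 3 SD of response in nonfluorescent compounds, cut at about 42% in these data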;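 further: stock transfer was 100 nL into about 11 µL; a reference agonist was the positive control; negative values mostly stem from fluorescent compounds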
Target sequence (P07550 whole entry, looked up): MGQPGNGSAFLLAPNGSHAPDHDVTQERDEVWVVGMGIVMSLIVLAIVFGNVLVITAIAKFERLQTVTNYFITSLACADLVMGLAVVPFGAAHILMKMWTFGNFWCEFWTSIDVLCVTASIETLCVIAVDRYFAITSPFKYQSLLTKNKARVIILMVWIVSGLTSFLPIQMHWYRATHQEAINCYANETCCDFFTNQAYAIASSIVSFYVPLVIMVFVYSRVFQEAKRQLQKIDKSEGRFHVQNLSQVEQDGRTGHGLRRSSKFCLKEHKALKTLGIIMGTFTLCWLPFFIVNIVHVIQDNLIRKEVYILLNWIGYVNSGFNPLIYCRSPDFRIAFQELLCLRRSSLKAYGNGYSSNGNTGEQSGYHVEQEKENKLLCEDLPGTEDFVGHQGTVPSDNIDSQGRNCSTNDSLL
HNF4A DNA FP = change in binding of human HNF4 alpha to DNA | HNF4a-FITC DNA binding, fluorescence polarization, 1 h | activity change, % at 10 µM | actives 0.3% (n = 360,000); in the data active means activity change above about 30%, passing the limit was not always enough;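 further: controls were the assay level and a saturating level of protein; the project sought stronger binding though the title names inhibitors; some compounds called inactive have numbers as strong as hits; positive values seem to mean higher polarization but the record does not say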
FGF22 binding = shifts melting point of recombinant human FGF22. actives 1.5% (n = 340,000). calls only at 9.99 µM. AID 651658. Q9HCT0. recombinant FGF22 thermal shift, SYPRO orange fluorescence; percent of sucrose octasulfate shift, DMSO zero;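 active means melting point raised past a set limit in the mean and every replicate; three in four hits are not shown here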
Target sequence (Q9HCT0 whole entry, looked up): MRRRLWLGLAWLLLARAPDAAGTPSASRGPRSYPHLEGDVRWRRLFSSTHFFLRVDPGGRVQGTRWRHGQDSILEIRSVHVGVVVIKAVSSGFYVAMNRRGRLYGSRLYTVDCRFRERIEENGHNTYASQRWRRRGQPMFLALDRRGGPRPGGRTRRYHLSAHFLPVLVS
* marks the source's active call; other numbers are inactive results; i = inactive; nt = not tested or not shown.

SMILES	Ecoli growth	ALR H2O2 inh	UCH37 DUB inh	LANA-H2A inh	B2AR ag	HNF4A DNA FP	FGF22 binding
Cc1c(O)ccc(C(=O)CN2CCN(c3ccccc3)CC2)c1O	0.69	26	5.6	0.7	5	2.8	i
CCN(CC)c1ccc(CN2CCCCCC2)cc1	nt	98*	nt	-0.2	2	6.2	nt
CC1Cc2cc(/C(O)=C3\C(=O)C(=O)N(Cc4ccncc4)C3c3ccccc3F)ccc2O1 (stereo unspecified)	0.6	-3	10	1.6	-3	1.6	i
Cc1nc2ccccc2n1CC(=O)NN	0.7	11	1.0	-0.9	-4	0.3	i
CC1CCCC(NC(=O)c2cccc(S(=O)(=O)NCc3ccccc3)c2)C1C (stereo unspecified)	0.71	-3	3.1	1.7	-6	-2.5	i
CCOC(=O)c1cn(Cc2c(C)c(C)c(C)c(C)c2C)nn1	0.65	-3	2.2	-2.3	-3	-0.3	i
COc1cc(/C=N/NC(=O)c2cc(-c3ccccc3Cl)nc3ccccc23)cc(OC)c1O	nt	11	nt	-0.8	13	0.7	i
CCCCCCc1c(C)c2ccc(OCC(=O)N3CCC[C@H]3C(=O)O)c(C)c2oc1=O	0.76	68	-86	7.4	-7	-1.0	i
Cc1ccc(C(=O)Nc2ncc(Cc3ccc(SC(F)F)cc3)s2)cc1	0.71	-1	4.9	4.4	3	-0.1	i
CN(C)c1ccc2c(O)cc(=O)n(C)c2c1	0.73	66	-217	-0.2	10	0.1	nt
CC(=O)c1ccc(NCC(=O)N2CCN(c3ccccc3)CC2)cc1	0.8	6	6.3	-0.5	10	-1.2	nt
O=C(NNS(=O)(=O)c1ccccc1[N+](=O)[O-])c1ccc(F)cc1	0.66	3	0.9	-2.6	2	1.9	i
Cc1cc(C)n2nc(CNS(=O)(=O)c3ccc([N+](=O)[O-])cc3)nc2n1	0.7	-10	1.6	-0.9	-3	-0.5	i
Cc1nc(NCCCO)c(C#N)c2c1COC(C)(C)C2	0.71	nt	-260	2.2	-5	0.9	nt
CN(C(=O)c1cccc(NC(=O)Cc2ccc(NC(=O)C3CCCN(C(=O)c4ccccc4)C3)cc2)c1)C1CCCC1 (stereo unspecified)	0.66	nt	3.0	nt	1	2.2	nt
CCCn1c(C)cc(C(=O)COC(=O)c2c(C)nn(-c3ccccc3)c2C)c1C	0.72	-16	2.0	-3.8	8	-1.5	nt
CCOC(=O)C1CCN(C(=O)C2CCN(c3ncnc4c3nc3n4CCCCC3)CC2)CC1	0.69	-2	6.9	0.0	7	0.1	i
C/C(=N\OCC(=O)Nc1nc2ccccc2s1)c1ccccc1	nt	-7	nt	-3.9	1	0.2	i
O=C(CN(C(=O)CNS(=O)(=O)c1ccc(F)cc1)c1cccc(F)c1)NCC1CCCO1 (stereo unspecified)	0.71	1	0.0	-4.6	-1	-3.2	i
COc1ccc(NC(=O)Nc2cccc(NC(C)=O)c2)c(OC)c1	0.7	4	2.9	0.1	-7	-3.5	i
O=[N+]([O-])c1ccc(CSc2nc3ccccc3[nH]2)cc1	0.67	nt	3.1	12	-13	-1.7	i
CC(C)OC(=O)Cn1cnc2ccc(Br)cc2c1=O	0.71	89*	0.7	-6.0	-5	2.9	nt
COc1ccc(NC(=S)NCCN2CCOCC2)cc1	0.7	-3	1.3	3.6	3	0.1	i
CN(CC(=O)Nc1ccccc1Cl)C(=O)c1cccc(S(=O)(=O)N2CCN(c3ccccc3)CC2)c1	0.71	nt	3.2	nt	10	-2.8	i
O=C(NCCc1ccc(Cl)cc1)C1CC(=O)N(C2CCCC2)C1 (stereo unspecified)	0.71	-3	2.6	-1.5	-3	2.4	i

Profiles from above.
`COc1ccc(NC(=O)Nc2cccc(NC(C)=O)c2)c(OC)c1` is entered as Ecoli growth: 0.7; ALR H2O2 inh: 4; UCH37 DUB inh: 2.9; LANA-H2A inh: 0.1; B2AR ag: -7; HNF4A DNA FP: -3.5; FGF22 binding: i
`Cc1nc(NCCCO)c(C#N)c2c1COC(C)(C)C2` is entered as Ecoli growth: 0.71; ALR H2O2 inh: nt; UCH37 DUB inh: -260; LANA-H2A inh: 2.2; B2AR ag: -5; HNF4A DNA FP: 0.9; FGF22 binding: nt
`O=C(NCCc1ccc(Cl)cc1)C1CC(=O)N(C2CCCC2)C1` (stereo unspecified) is entered as Ecoli growth: 0.71; ALR H2O2 inh: -3; UCH37 DUB inh: 2.6; LANA-H2A inh: -1.5; B2AR ag: -3; HNF4A DNA FP: 2.4; FGF22 binding: i

Next entries follow.
SMILES	Ecoli growth	ALR H2O2 inh	UCH37 DUB inh	LANA-H2A inh	B2AR ag	HNF4A DNA FP	FGF22 binding
CCCOc1ccc(C(O)(CCC)CCN2CCCCC2)cc1 (stereo unspecified)	0.73	-1	-0.7	2.7	9	-1.1	nt
[O-]c1c[n+](-c2ccccc2)no1	0.7	-5	5.0	-0.8	0	0.8	i
Cc1ccc(S(=O)(=O)N(CC(=O)N2CCC(C)CC2)c2ccccc2)cc1	0.67	-3	0.8	0.4	-3	3.5	i
COC(=O)c1c(-c2ccc(OC)c(OC)c2)csc1N	0.74	70	4.3	4.6	nt	0.5	nt
COC(=O)c1ccc(CSc2nnc(CS(=O)Cc3ccc(Br)cc3)n2-c2ccccc2)cc1 (stereo unspecified)	0.72	-6	1.9	-2.9	5	0.5	i
CCc1ccc(NC(=O)C2CCN(c3ncnc4c3nc3n4CCCCC3)CC2)cc1	0.67	8	0.9	5.9	-6	2.5	i
COc1ccc(N(CC(=O)NCc2ccc(Cl)cc2)S(=O)(=O)c2c(C)nn(C)c2C)cc1	0.7	-4	2.6	-4.9	1	-1.3	i
CCc1ccc(C(C(=O)NC2CCCCC2)N(C(=O)c2ccccn2)c2cccnc2)cc1 (stereo unspecified)	0.67	-10	0.0	4.4	nt	nt	nt
COc1cccc(CC(=O)OCC(=O)NC2CCCC2)c1	0.69	-1	2.6	1.2	6	-4.9	i
Clc1cccc(OCc2nc(-c3ccncc3)n[nH]2)c1	0.64	5	5.5	-5.8	16	1.2	i
COC(=O)C(CC(C)C)NC(=O)C(N)Cc1ccccc1 (stereo unspecified)	0.69	-20	1.7	3.4	-3	0.1	nt
NS(=O)(=O)c1ccc(CCNC(=O)c2cc([N+](=O)[O-])ccc2N2CCOCC2)cc1	0.69	-1	8.9	2.0	-2	-1.2	i
Cc1cccc(C)c1NC(=O)CSc1nnnn1-c1ccc(C(=O)O)cc1	0.66	-9	4.0	-8.6	0	0.7	nt
CC(=O)Nc1ccc(OC(F)(F)Cl)cc1	0.68	-21	3.9	-2.3	-1	0.6	i
COc1ccc(C(C)(C)C)cc1NC(=O)Nc1ccc2c(c1)OCO2	0.68	6	4.4	1.5	-7	-2.2	nt
COc1ccccc1N(CC(O)CN1CCCCC1)S(=O)(=O)c1ccc(C)cc1 (stereo unspecified)	0.68	-1	4.0	1.2	2	1.2	i
CC(NC1c2ccccc2-c2ccccc21)c1ccccc1 (stereo unspecified)	0.66	1	0.8	9.0	24	-0.4	i
COCCn1c(SCC(=O)Nc2ccc(OC)cc2OC)nc2ccccc2c1=O	0.72	1	0.7	-0.5	-2	-2.3	i
Cc1c(C(=O)N2CCOCC2)c(S(=O)(=O)Nc2cccc(F)c2)c(C)n1C	0.7	-9	3.3	0.9	3	-0.6	i
COc1ccc(CN(C(=O)c2snc(C(N)=O)c2N)C(C(=O)NC2CCCC2)c2cc(OC)ccc2OC)cc1 (stereo unspecified)	0.64	-1	-24	-3.5	-2	-4.6	i
COCCn1c(C)cc(C(=O)COC(=O)C23CC4CC(CC(O)(C4)C2)C3)c1C	0.71	-2	2.0	2.9	4	1.5	nt
O=C(CN1C(=O)NC(c2ccccc2)(c2ccccc2)C1=O)NCc1ccc(F)cc1	0.7	-4	-2.0	-3.7	9	-0.5	i
Cc1cc(C(=O)COC(=O)c2ccc(NC(=O)CC#N)cc2)c(C)n1-c1ccc(OC(F)F)cc1	0.71	-2	1.3	1.4	9	28	i
CC(C)[C@H](NC(=O)NCCc1ccc(Cl)cc1)C(=O)O	0.71	4	1.7	-0.2	9	-0.1	i
CCC/C=C1/CCCOC(C(=O)NCc2ccc(S(C)(=O)=O)cc2)(C(F)(F)F)C1 (stereo unspecified)	nt	-9	3.0	1.6	-2	-3.5	i
More results follow:
SMILES	Ecoli growth	ALR H2O2 inh	UCH37 DUB inh	LANA-H2A inh	B2AR ag	HNF4A DNA FP	FGF22 binding
CCOc1ccc2c(c1)c1nnc(SCC(=O)N3CCC(C)CC3)nc1n2C	0.71	nt	5.0	nt	14	0.1	nt
CCn1c(=O)cc(OCC(=O)NCCCN2CC(C)CC(C)C2)c2ccccc21 (stereo unspecified)	0.71	-4	0.1	0.8	3	3.9	nt
CC(C)(C)NC(=O)C1CCCN(S(=O)(=O)c2cccc3cccnc23)C1 (stereo unspecified)	0.73	nt	4.6	5.5	-10	-0.5	i
CCc1ccccc1NC(=O)C(CC)Sc1nc2cc3c(cc2c(=O)n1Cc1ccco1)OCO3 (stereo unspecified)	0.7	5	4.0	0.4	3	6.5	nt
Cc1c(C(=O)OCC(=O)NCCN2C(=O)CSC2=O)cccc1[N+](=O)[O-]	0.69	-10	2.3	0.5	0	1.6	i
COc1cccc(NC(=O)Nc2cc(C(=O)O)ccc2N2CC3CC(C2)c2cccc(=O)n2C3)c1 (stereo unspecified)	0.69	0	3.7	0.8	2	4.0	i
O=C1CC(N2CCc3ccccc32)C(=O)N1c1ccc(F)cc1 (stereo unspecified)	0.74	99*	2.9	-0.1	9	-2.6	i
COc1ccc(C(=O)NCc2nnc(SCC(=O)NC3=NCCS3)n2C)cc1	0.69	nt	1.7	4.6	0	1.0	i
O=C(Cn1c(=O)cnc2ccccc21)NC1CCC(O)CC1 (stereo unspecified)	0.7	-2	3.7	-4.6	-1	-2.8	nt
CCCCCCCC(=O)N/N=C(\C)c1cccnc1	nt	nt	nt	1.8	-7	-3.1	nt
CCN(CC)c1ccc(S(=O)(=O)N2CCCCC2)cc1NC(=O)CN1C(=O)NC2(CCCC2)C1=O	0.69	-1	0.6	1.4	-5	3.2	i
CC1CC(NC(=O)CC#N)CC(C)(C)C1 (stereo unspecified)	0.64	0	5.8	3.0	0	-6.0	i
COc1ccc(S(=O)(=O)N2CCN(Cc3cc(=O)n4ccccc4n3)CC2)cc1	0.71	1	1.6	nt	16	-4.0	i
COc1ccc(OC)c(S(=O)(=O)n2nnc3cc(Cl)ccc32)c1	0.73	-10	0.8	-0.1	-1	-0.7	nt
Cc1sc(NC(=O)C2CC(Cl)=CCC2C(=O)O)c(C#N)c1C (stereo unspecified)	0.7	11	-1.1	-15	-2	1.1	i
CCCCOC(=O)c1ccc(NC(=O)/C=C/c2cccs2)cc1	0.63	-8	-9.8	3.7	7	1.9	nt
O=C(NC(=S)Nc1ncc(Br)cc1Br)c1cncc(Br)c1	0.69	-1	1.1	3.9	-12	0.2	nt
COCCNC(=S)Nc1ccc(Cl)c(Cl)c1	0.66	-6	2.5	-3.0	1	2.1	i
O=C(N/N=C/c1cc(O)ccc1[N+](=O)[O-])c1ccc2c(c1)OCCO2	nt	-2	nt	-8.3	8	4.1	nt
O=C(C[C@@H]1C/C=C\C[C@H](Cc2ccc(F)cc2)C(=O)OC[C@@H](Cc2c[nH]c3ccccc23)NC1=O)NCCO	nt	-7	-0.8	5.7	6	0.8	i
Cn1c(SCC(=O)N2CCCCCC2)nc2c(c1=O)SCC2	0.67	-2	2.3	1.6	-3	-3.4	i
CCOC(=O)CNC(=O)N1CCC(CCC(=O)N(C)Cc2ccccc2)CC1	0.71	1	1.2	1.0	21	-1.3	i
COc1ccc(-c2c(C#N)c(C)nc3c2C(=O)c2ccccc2-3)cc1	0.7	-15	5.6	3.1	-12	24	nt
Cc1cc(OCC(=O)N2CCN(c3ccccc3)CC2)c2c(C)cc(=O)oc2c1	0.73	2	2.6	-1.3	-3	0.4	i
NC(=O)C(c1ccc(Cl)cc1)c1ncc(C(F)(F)F)cc1Cl (stereo unspecified)	0.69	-8	5.4	2.5	-11	-1.1	nt
Cn1c(Cn2c(=O)sc3ccccc32)nnc1SCC(N)=O	0.7	-9	1.7	-5.1	-3	-0.9	i

Bioassay records: PubChem, several laboratories

These rows are one share of the data (hit frequency here may not be typical).
